Mtb growth: Mycobacterium tuberculosis H37Rv growth inhibition, cell based, confirmatory dose response (AID 1949); most inactive calls were filed without a number and no value below 0 was filed; one-dose inhibition, % at 10 µg/mL; IC50 in µg/mL for titrated hits; 1.6% of 100,000 active;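 active means confirmed in a dose series; inconclusive means about 50% or more but not retested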;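 further: bacteria grown 7 days with compound before Alamar blue readout; 0% = untreated bacteria and 100% = reference antibiotic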
* marks the source's active call; other numbers are inactive results; i = inactive; ? = inconclusive. Not all compounds are listed, so the mix of outcomes need not match the whole.

SMILES | Mtb growth
Cc1cc(C(=O)NCCc2cccc(Cl)c2)ccc1[N+](=O)[O-] | i
CCCCC(=O)Nc1cccc2nc(C)ccc12 | 11%
N#Cc1c(-c2ccco2)cc(-c2ccccc2)nc1SCCN1C(=O)c2ccccc2C1=O | i
c1csc(-c2nc(-c3ccsc3)[nH]c2-c2cccs2)c1 | 1%
CC(=O)Nc1ccc(S(=O)(=O)Nc2nc(C)c(C(=O)Nc3ccccc3)s2)cc1 | i
COC(=O)C1=C(C)NC(=S)N(C(C)=O)C1c1ccc(Cl)cc1 (stereo not given) | i
O=C(NCCSC1CCCCC1)c1ccc([N+](=O)[O-])cc1 | 1%
COc1ccc(OC)c(S(=O)(=O)n2cnc3ccccc32)c1 | i
CCCCOc1ccc(C(=O)Nc2nc(-c3ccc(F)cc3)cs2)cc1 | 1%
O=C(c1ccc(S(=O)(=O)N2CCCCC2)cc1)n1nnc2ccccc21 | i
CCN1CCN(CCC(=O)Nc2cccc(F)c2)CC1 | i
COC(=O)c1ccccc1NC(=O)Nc1cc(C(F)(F)F)ccc1F | i
Cc1nc(SCC(=O)N2CCCCC2)c2cc(-c3ccccc3)sc2n1 | 44%
COC(=O)c1c(NC(=S)NCc2ccccn2)sc2c1CCC2 | i
O=C1c2cccc3c(Br)ccc(c23)C(=O)N1O | i
CCCCC(=O)Nc1nc2ccc(S(C)(=O)=O)cc2s1 | 3%
O=C(c1ccc(-c2ccccc2)cc1)N1CCN(S(=O)(=O)c2ccc3ccccc3c2)CC1 | 34%
O=C(CCNc1n[nH]c(=O)[nH]c1=O)N/N=C/c1c[nH]c2ccccc12 | i
CCS(=O)(=O)N1CCC(C(=O)Nc2cccc(F)c2)CC1 | i
COc1cc(S(=O)(=O)NCC2CCCO2)ccc1Br (stereo not given) | i
CCOC(=O)N1CCN(C(=O)c2ccc(Cl)c(S(=O)(=O)N3CCCC3)c2)CC1 | i
CSc1ccccc1NC(=O)c1nc2nc(C)cc(C)n2n1 | i
O=C(CC12CC3CC(CC(C3)C1)C2)N1CCN(c2ccc(C(F)(F)F)cc2[N+](=O)[O-])CC1 | 25%
COc1ccccc1C(=O)Nc1ccc(S(=O)(=O)N2CCC(C)CC2)cc1 | 2%
O=C(CN1C(=O)C2C3CCC(C3)C2C1=O)Oc1ccc(-c2ccccc2)cc1 (stereo not given) | i
Cc1ccc(NC(=S)N2CCC(O)CC2)c(C)c1 | i
O=C(CSCc1ccc(Cl)cc1)Nc1ccc(F)cc1F | 14%
CCOc1ccc(C(=O)C(C)=O)c(OCC)c1 | i
Cc1ccc(C(=O)Nc2ccc3c(c2)C(=O)N(C)C3=O)cc1Cl | i
COc1ccc2c(c1)C(C)=CC(C)(C)N2C(=O)CSc1ccccn1 | i
COc1ccc(C(C)C)cc1S(=O)(=O)NCc1ccccn1 | i
Cc1cc(C(=O)Nc2cccc(C(=O)O)c2)oc1C | i
CCOC(=O)N1CCN(S(=O)(=O)c2cc(OC)ccc2OC)CC1 | i
N#Cc1c(C(F)(F)F)cc(=O)n2c1[nH]c1ccccc12 | i
O=C(Nc1ccccc1-c1ccccc1)c1cc2cc(Br)ccc2oc1=O | i
Cc1cc(Br)ccc1-c1ccc(-c2nc3sc(C)c(C)c3c(=O)[nH]2)o1 | i
CC(C)Oc1ccc(C(=O)NCC2(c3ccccc3)CCOCC2)cc1 | 3%
Cc1ccc(S(=O)(=O)n2cnc3ccccc32)cc1 | i
COc1ccc(S(=O)(=O)N(CC(=O)Nc2cccc(C(F)(F)F)c2)c2ccccc2OC)cc1 | i
COc1cc(NC(=S)Nc2ccc(C(C)=O)cc2)cc(OC)c1 | i
Oc1ccc(CSc2ccccc2)c2cccnc12 | 0.6µg/mL*
Oc1ccc(N2CCN(C(=S)NCCc3ccccc3)CC2)cc1 | i
O=C(O)c1ccc(CNC(=S)NCc2ccc(Cl)cc2)cc1 | i
CCc1cc2c(=O)n(CC(=O)NCCc3ccc(OC)c(OC)c3)cnc2s1 | i
CC(C)CSc1nnc2nc3[nH]c4ccccc4c3nn12 | 0%

Given field by field: part of the list above.
> Cc1cc(C(=O)Nc2cccc(C(=O)O)c2)oc1C
  Mtb growth: i
> CCOC(=O)N1CCN(S(=O)(=O)c2cc(OC)ccc2OC)CC1
  Mtb growth: i
> N#Cc1c(C(F)(F)F)cc(=O)n2c1[nH]c1ccccc12
  Mtb growth: i
> O=C(Nc1ccccc1-c1ccccc1)c1cc2cc(Br)ccc2oc1=O
  Mtb growth: i

Carrying on.
SMILES | Mtb growth
O=C(NC(=S)Nc1ccc(N2CCCCC2)cc1)c1ccc(F)cc1 | i
COC(=O)c1ccccc1NC(=O)CSc1nc(C)cc(C)n1 | i
O=C(CSc1nnc(-c2ccc(Br)cc2)o1)NCc1ccccc1 | i
C=CCc1cc(OC)ccc1OCCOCCn1ccnc1 | 11%
Cc1cccc(-n2ncc3c(N4CCCC(C)C4)ncnc32)c1 (stereo not given) | 39%
CC(Oc1ccc(Br)cc1)C(=O)N1CCc2ccccc21 (stereo not given) | i
Cc1ccc(Cl)cc1NS(=O)(=O)c1cc([N+](=O)[O-])ccc1C | i
CC(C)c1ccc(NC(=O)C(=O)NCCCn2ccnc2)cc1 | i
CCCCC(NC(=O)c1ccccc1Br)c1ccccc1 (stereo not given) | i
CC12CCC(C(=O)Nc3ccc(Br)cc3)(C(=O)C1=O)C2(C)C (stereo not given) | i
CCc1c(C)nc2nc(NC(C)=O)[nH]n2c1=O | 7%
CC(C)C(=O)Nc1cccc(NC(=O)c2cccc(COc3ccccc3)c2)c1 | i
Cc1cc(OCCOCCN2CCCCC2)cc(C(C)C)c1 | i
Cc1ccccc1NC(=S)C(C#N)C(N)=O (stereo not given) | 0%
CC(NC(=O)C1CCCCC1)c1ccc(I)cc1 (stereo not given) | i
O=C(CN1C(=O)c2cccc3cccc1c23)Nc1ccccc1C(=O)N1CCCC1 | i
Cc1nnc(SCC(=O)Nc2ccc(S(N)(=O)=O)cc2)s1 | i
OCCNCc1ccc(N2CCCC2)cc1 | i
Cc1cccc(C(CC(=O)NCCc2ccccc2)c2ccccc2)c1O (stereo not given) | 6%
Cc1nc(CC(O)C(Cl)(Cl)Cl)c2cc(C)oc2n1 (stereo not given) | 0%
COc1ccc(NC(=O)NC2CCN(C(C)C)CC2)c(OC)c1 | 2%
CC(C)NC(=O)c1cc(I)ccc1NC(=O)c1ccco1 | i
Cc1ccc(C(=O)Nc2ccccc2C(=O)Nc2nccs2)cc1 | i
COc1ccccc1-c1c(C)nn2c(C(F)(F)F)cc(-c3ccc(Br)cc3)nc12 | 10%
CCOc1ccc(C(=O)Nc2cccc(I)c2)cc1OCC | 6%
CCOC(=O)c1sc(NC(=O)CSc2ncn[nH]2)nc1C | i
OCCNc1nc(N2CCN(c3ccccc3)CC2)nc2ccccc12 | 1%
COc1ccccc1NC(=O)c1ccccc1NC(=O)c1ccc(Br)cc1 | i
CCOc1ccc(S(=O)(=O)N(CC(=O)Nc2cccc([N+](=O)[O-])c2)c2ccc(C)cc2)cc1 | i
CC(C)N(C(=O)Cn1cnc2ccccc21)c1ccccc1 | i

Reformatted: results already given
smiles	Mtb growth
Cc1cccc(C(CC(=O)NCCc2ccccc2)c2ccccc2)c1O (stereo not given)	6%
Cc1nc(CC(O)C(Cl)(Cl)Cl)c2cc(C)oc2n1 (stereo not given)	0%
COc1ccc(NC(=O)NC2CCN(C(C)C)CC2)c(OC)c1	2%
CC(C)NC(=O)c1cc(I)ccc1NC(=O)c1ccco1	i
Cc1ccc(C(=O)Nc2ccccc2C(=O)Nc2nccs2)cc1	i
COc1ccccc1-c1c(C)nn2c(C(F)(F)F)cc(-c3ccc(Br)cc3)nc12	10%
CCOc1ccc(C(=O)Nc2cccc(I)c2)cc1OCC	6%
CCOC(=O)c1sc(NC(=O)CSc2ncn[nH]2)nc1C	i
OCCNc1nc(N2CCN(c3ccccc3)CC2)nc2ccccc12	1%
COc1ccccc1NC(=O)c1ccccc1NC(=O)c1ccc(Br)cc1	i
CCOc1ccc(S(=O)(=O)N(CC(=O)Nc2cccc([N+](=O)[O-])c2)c2ccc(C)cc2)cc1	i
CC(C)N(C(=O)Cn1cnc2ccccc21)c1ccccc1	i

Later entries
SMILES | Mtb growth
O=C(CN(c1ccc(F)cc1)S(=O)(=O)c1ccc2c(c1)OCCO2)N1CCc2ccccc2C1 | i
CCN(CC)S(=O)(=O)c1ccc(NC(=S)NC(=O)COc2ccccc2)cc1 | i
CN(C)c1ccc(C(=O)NCc2cccnc2)cc1 | i
O=C(COc1ccc2ccccc2c1)NN1CCCCC1 | 2%
COc1ccc(CNCCc2ccc(OC)c(OC)c2)cc1Br | i
COc1ccc(-c2cc(C(=O)Nc3cccnc3)c3ccccc3n2)cc1 | i
CCC(C)c1ccc(NC(=S)Nc2ccc(OC)c(OC)c2)cc1 (stereo not given) | i
Cc1cc(OCc2nc(-c3ccc([N+](=O)[O-])cc3)no2)cc(C)c1Br | i
O=C(CCC1CCCCC1)Nc1ccccc1Cl | i
COc1ccccc1NC(=O)C(=O)N1CCOCC1 | i
Nc1nc(-c2ccco2)nn1C(=O)c1cccs1 | 1%
Cc1cc(Br)ccc1NC(=O)CSc1nnc(C(C)Oc2ccccc2)n1C (stereo not given) | i
CN1CCN(c2ccccc2NC(=O)Cc2ccc(Cl)cc2)CC1 | i
C=CCN(C(=O)Nc1ccc2c(c1)nc(C)n2C)c1ccccc1 | 4%
COc1ccc2oc(-c3ccc(C)c(NC(=O)c4ccc5c(c4)OCCO5)c3)nc2c1 | i
COc1ccc(Cl)cc1NS(=O)(=O)c1ccc(C)c(C)c1 | i
COc1ccc(Nc2ncnc3ccccc23)c(OC)c1 | i
O=C(Cc1ccccc1)NCC(=O)OCc1ccccc1F | i
CCc1cccc(C)c1NC(=O)c1ccc(N(Cc2ccc(C)cc2)S(C)(=O)=O)cc1 | i
O=c1[nH]c2ccccc2c(=O)n1Cc1ccccc1 | i
CC1(C)CC(=O)c2cnc(NC(=O)Nc3ccccc3)nc2C1 | i
Cc1cc(Br)cc(C)c1OCC(=O)Nc1nnc(C(C)C)s1 | 0%
Cc1nccn1CC(O)Cn1c2ccccc2c2ccccc21 (stereo not given) | i
CC(=O)N1CCN(C(=S)c2ccc(-c3ccc(Cl)cc3Cl)o2)CC1 | i
O=C(CCc1ccccc1)NC(=S)Nc1ccc(Cl)cc1Cl | i
COc1cc([N+](=O)[O-])ccc1NC(=S)NC(=O)c1ccc(Br)cc1 | i
NC(=NC(=O)c1ccccc1)N1CCOCC1 | i
O=C(Nc1cc(Cl)ccc1O)c1cc(-c2ccccc2)nc2ccccc12 | 37%
c1ccc(CCN2CCN(c3ncnc4sc5c(c34)CCCC5)CC2)cc1 | 24µg/mL*
Cc1cc(OCC(=O)Nc2ccc(S(=O)(=O)N3CCCC3)cc2)ccc1Br | 4%
N#C/C(=C\c1ccc(-c2cccc(Cl)c2)o1)C(=O)Nc1cccc(Cl)c1 | i
O=C(Nc1cccc(NC(=O)c2cncc(Br)c2)c1)c1cccc(Cl)c1 | i
OCc1ccc(OCc2ccc(Br)cc2)c(Cl)c1 | i
CC1=C(C(=O)OCCc2ccccc2)C(c2cccs2)NC(=O)N1 (stereo not given) | 4%
O=C(Nc1cc(Cl)ccc1Cl)C1CCN(S(=O)(=O)c2ccc(F)cc2)CC1 | i
COc1ccc(CCNC(=O)COc2ccc(C(=O)Nc3cccc(Cl)c3C)cc2)cc1OC | i
Cc1cnc(NC(=O)CCC2CCCC2)s1 | i
O=C(NN1CCOCC1)c1sc2ccccc2c1Cl | 0%
Cc1ccc(-c2csc(-c3ccc(O)cc3)n2)c(C)c1 | ?
COc1ccc(N(CC(=O)Nc2cc([N+](=O)[O-])ccc2OC)S(=O)(=O)c2ccc(C)cc2)cc1 | i
COCCNC(=O)COc1ccc(C)cc1C | i
CCc1c(C)c2ccc(OCC(=O)Nc3c(C)cccc3C)c(C)c2oc1=O | 4%
Cc1ccc(C(C)C)c(OCCn2c(=S)[nH]c3ccccc32)c1 | 12%
CCc1cccc(CC)c1NC(=O)c1cc(SC)ccc1Cl | 5%
COc1cc(S(=O)(=O)N2CCOCC2)ccc1Br | i
O=C(Nc1cc(Cl)cc(Cl)c1)C1CCCN1S(=O)(=O)c1ccc(Cl)cc1 (stereo not given) | i
O=C(Nc1ccc(-c2nc3ccccc3s2)cc1)c1ccc2c(c1)OCCO2 | i
CC(C)(C)c1ccc(OCC(=O)O/N=C(\N)c2ccncc2)c(Br)c1 | 2%
CCCN(CCC)C(=O)c1cc2c(n(-c3ccc(Cl)c(Cl)c3)c1=O)CC(C)(C)CC2=O | 0%
CCOc1cc(S(=O)(=O)NCc2ccccc2)ccc1Cl | 27%
COC(=O)C1=CN(Cc2ccc(F)cc2)C=C(C(=O)OC)C1c1ccc(C)c([N+](=O)[O-])c1 | i
CCOC(=O)c1c(NC(=O)COc2ccc(Cl)cc2C)sc2c1CCC2 | i
COc1ccc(CSc2nnc(SCC(=O)Nc3ccc(Cl)cc3)s2)cc1 | 47%
CCOC(=O)c1ccc(NC(=S)NC(=O)c2ccc(OC)c(OC)c2)cc1 | i
O=C(Nc1cccc(NC(=S)NC(=O)c2ccc(Cl)cc2Cl)c1)c1ccccc1F | i
Cc1c(NC(=O)CSc2nnnn2-c2ccc(F)cc2)c(=O)n(-c2ccccc2)n1C | i
O=C(Nc1ccc(Cl)cn1)c1cc(S(=O)(=O)N2CCCCC2)ccc1Cl | i
COc1ccc(C2CC(c3cccs3)=NN2S(C)(=O)=O)cc1OC (stereo not given) | i
Cc1ccccc1OC(C)C(=O)Nc1ncn[nH]1 (stereo not given) | 0%
CN(CC(=O)N1CCCCCC1)S(=O)(=O)c1cc(Cl)ccc1Cl | i
Next compounds:
SMILES | Mtb growth
CCc1ccc(OC(=O)c2ccccc2I)cc1 | 13%
N#Cc1c(NC(=O)c2cnn3cc(Br)cnc23)sc2c1CCC2 | i
CCOC(=O)c1cc(Cc2ccccc2)sc1NC(=O)c1ccc([N+](=O)[O-])cc1 | i
Cc1cc(C)c(NC(=O)CSc2nnc(-c3ccncc3)n2C)c(C)c1 | i

Compound activity deposited in PubChem BioAssay by Southern Research Institute.
